# Screening data (PubChem BioAssay)
# Cruzain inh noDet = cruzain (T. cruzi) inhibition without detergent; 200,000 tested, 2.3% active; P25779; Potency, µM, without a hit: max response, negative = inhibition, hits mostly inhibitors; purified cruzain, Z-FR-AMC fluorescence, no detergent;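 note: plate controls were enzyme without inhibitor for no effect and buffer without enzyme for full effect; nearly all actives have a fitted effect of over 40% in size; top concentration of the series not given in the record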
# Target sequence (P25779 123-467 limits assumed): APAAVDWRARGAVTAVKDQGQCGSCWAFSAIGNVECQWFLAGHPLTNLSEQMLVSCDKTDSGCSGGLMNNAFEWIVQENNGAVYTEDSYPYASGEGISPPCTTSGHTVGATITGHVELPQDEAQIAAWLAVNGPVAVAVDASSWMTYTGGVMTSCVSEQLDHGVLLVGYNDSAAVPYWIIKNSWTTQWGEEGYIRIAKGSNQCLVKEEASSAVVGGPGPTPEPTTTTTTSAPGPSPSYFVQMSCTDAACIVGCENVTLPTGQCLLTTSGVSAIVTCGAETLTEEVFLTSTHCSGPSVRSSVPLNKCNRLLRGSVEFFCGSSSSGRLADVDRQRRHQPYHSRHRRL
#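 Detergent-free condition (0.00005% Triton X-100) in acetate buffer pH 5.5 with DTT. 1.5 nM enzyme and compound were pre-mixed 15 min, then 2 uM Z-FR-AMC substrate added; reaction progress from fluorescence change between first and third reads (60 s).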
# StopGo reporter = lowers the luciferase signal of an FMDV 2A StopGo reporter; Potency, µM (doses to about 57.9 µM), inactives show at the highest dose signal change, negative = less light; human cells with a luciferase reporter of 2A StopGo recoding; control for the full effect not named in the record; 410,000 tested, 1.2% active; active = well fitted falling curve with a large enough effect; inconclusive = small, poorly fitted or top-dose-only effect; inactive = no such curve, though single readings can be large or run the other way; tested in HEK293T cells; note: % is set by controls: 0 for no effect and ±100 for the full control effect; nearly all actives have a fitted effect of over 45% in size; luciferase light after 4 h
# SARS PLpro yeast = SARS-CoV PLP inhibition in yeast. Potency, µM (series often up to 32.9 µM), inactives show at the top dose activity, positive = growth rescue. 330,000 tested, 0.19% active. S. cerevisiae expressing SARS-CoV PLpro, growth rescue; control for the full effect not named in the record; active means well fitted rising curve with a large enough effect; inconclusive means small, poorly fitted or top-dose-only effect; inactive means no such curve, though single readings can be large or run the other way; note: 0% is about no effect; nearly all actives have a fitted effect of over 55% in size; growth read by luminescence after 48 h
# Marburg entry inh = inhibitors of Marburg virus binding or cell entry | 300,000 tested, 1.8% active | Marburg virus pseudotyped entry inhibition, cell reporter; control for the full effect not named in the record; about a third of the inactives were read at about 46 µM | Potency, µM (highest dose often 37.8 µM), for inactives: at the highest dose activity change, negative = inhibition, most hits filed as inhibitors; active = well fitted inhibition curve with a large enough effect; inconclusive = small, poorly fitted or top-dose-only effect, or effect the other way; inactive = flat fitted curve, though single readings scatter; tested in HEK293 cells; about a fifth of its hits are not listed in these tables; note: % is set by controls: 0 for no effect and ±100 for the full control effect; luciferase read-out
# LASV entry inh = inhibitors of Lassa virus binding or cell entry; Lassa virus pseudotype entry inhibition, cell reporter; control for the full effect not named in the record; AID 540256; Potency, µM (top dose mostly 37.9 µM), inactives show at the highest dose activity change, negative = inhibition, usual class: inhibitors; 300,000 tested, 1.2% active; active means well fitted inhibition curve with a large enough effect; inconclusive means small, poorly fitted or top-dose-only effect, or effect the other way; inactive means flat fitted curve, though single readings scatter; tested in HEK293 cells; note: % is set by controls: 0 for no effect and ±100 for the full control effect; nearly all actives have a fitted effect of over 50% in size; luciferase read-out
# NS1 function inh = blocks influenza NS1 protein function; S. cerevisiae slowed by influenza A NS1, growth recovery by OD600; Potency, µM (top dose mostly 46.1 µM), without a hit: at the highest dose activity, positive = more growth; 270,000 tested, 0.4% active; AID 2326; active means well fitted rising curve with a large enough effect; inconclusive means small, poorly fitted or top-dose-only effect; inactive means no such curve, though single readings can be large or run the other way; note: nearly all actives have a fitted effect of over 50% in size
#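 OD600 was taken as the measure of yeast growth restored by compound in an NS1-expressing S. cerevisiae strain. Cells had been washed out of glucose medium and diluted 1:100 into galactose -URA medium, pH 6.0.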
# RE007 growth inh = less growth of the S. pombe RE007 Vpr strain; S. pombe RE007 Vpr strain, BacTiter-Glo ATP luminescence, 24 h; control for the full effect not named in the record; Potency, µM (titrated, usually from 92.2 µM), for inactives: top-dose activity change, negative = less growth; 360,000 tested, 0.21% active; AID 651644; active = well fitted falling curve with a large enough effect; inconclusive = small, poorly fitted or top-dose-only effect; inactive = no such curve, though single readings can be large or run the other way;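 note: % is set by controls: 0 for no effect and ±100 for the full control effect; nearly all actives have a fitted effect of over 50% in size; the assay follows cell death caused by Vpr and the record does not say whether a fall means rescue or toxicity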
#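 Fission yeast RE007 carrying one integrated HIV-1 vpr copy, seeded at OD 0.01 in PMG+AL medium with 23 nL pinned compound. Grown 24 h at 30 degrees; viability read by BacTiter-Glo luminescence after 5 min.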
# Cruzain inh Det = cruzain (T. cruzi) inhibition with detergent. P25779. purified cruzain, Z-FR-AMC fluorescence, 0.01% Triton. Potency, µM, without a hit: max response, negative = inhibition, usual class: inhibitors. 200,000 tested, 0.43% active. AID 1478;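 note: plate controls were neutral wells for no effect and buffer without enzyme for full effect; nearly all actives have a fitted effect of over 40% in size; top concentration of the series not given in the record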
#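 15 min RT preincubation of 1.5 nM cruzain with compound, then 2 uM Z-FR-AMC added; kinetic AMC fluorescence, 60 s delta. Triton X-100 0.01%, pH 5.5.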
# * = called active by the depositor; ? = inconclusive; . = no result given; [ ] = dose if it differs, or a comment. Unless noted, calls come from the whole dose curve; as a rule, active = well fitted curve in the direction sought with a large enough effect; inconclusive = small, poorly fitted or top-dose-only effect, or another doubt; inactive = no such curve, though single readings can be large; an effect the other way counts as inactive or inconclusive. Potency is the fitted concentration of half-maximal effect. Not a hit list; overall some 4.5% were active at least once.
compound	RE007 growth inh	StopGo reporter	Cruzain inh Det	Cruzain inh noDet	SARS PLpro yeast	NS1 function inh	LASV entry inh	Marburg entry inh
CCC(C)NC(=O)Cn1c(=O)n(-c2ccc(OC)c(OC)c2)c(=O)c2ccccc21 (stereo not given)	.	-3%	-0.9%	9%	.	.	0%[46.1 µM]	2%[46.1 µM]
COc1ccc(C(=O)Nc2ccccc2C(=O)OCc2cc(=O)n3c4c(sc3n2)CCCC4)cc1	.	-7%	0.3%	3%	.	.	-4%[46.1 µM]	.
CNC(=O)CSc1nnc(-c2cnccn2)n1C	-3%	10%	.	.	0%	3%	.	.
CCOc1ccc(NC(=O)CN2CCN(CC(=O)c3ccc(OCC)cc3)CC2)cc1	-18%	1%	0.4%	-8%	-13%	-12%	?	-2%
Cc1ccc(Cn2nnc3c(=O)[nH]c(C4CCN(S(=O)(=O)/C=C/c5ccccc5)CC4)nc32)cc1	15%	-26%	.	.	-2%	?	?	?
COc1ccc(NC(=S)N(CCCN2CCC(C)CC2)Cc2cccs2)cc1Cl	2%	113%[activator]	.	.	1%	.	?	?
Cc1cc(C)n(-c2nc(-c3ccc(Cl)c(Cl)c3)cs2)n1	-3%	43%[activator]	-2.3%	1%	0%	-12%	13%	22%
CCn1c(CSc2nc(C)cc(C)n2)nnc1SCC(=O)Nc1nc(-c2ccccc2)cs1	10%	-28%	-4.0%	5%	-4%	-4%	21%	?
CCCOc1ccc(C(=O)Nc2ccc(NC(=O)c3ccccc3)c(Br)c2)cc1	.	-6%	0.5%	6%	.	.	-1%[46.1 µM]	.
Cc1ccc(-c2nn(CC(N)=O)c(=O)c3ccccc23)cc1S(=O)(=O)N(C)C	-3%[3.69 µM]	-19%	5.4%	-5%	5%	2%	1%	11%
Cn1c(NCC(O)c2ccccc2)nc2c1c(=O)n(Cc1ccc(Cl)c(Cl)c1)c(=O)n2C (stereo not given)	21%	14µM*	.	.	.	.	?	?
Cc1ccccc1OCC(=O)NC(=S)Nc1ccc(S(=O)(=O)NC2CCCCC2)cc1	9%	-28%	-2.3%	?	?	9%	-15%	9%
O=C(CSc1nc2cc(Cl)ccc2s1)Nc1cccc(S(=O)(=O)N2CCOCC2)c1	2%	?	-5.3%	-18%	20%	?	?	?
Cc1noc(NS(=O)(=O)c2ccc(NC(=O)NC(C)(C(F)(F)F)C(F)(F)F)cc2)c1C	10%	-17%	.	.	0%	-4%	.	.
O=c1c2c(nc3n1CCS3)c1cc(F)ccc1n2Cc1cc(=O)n2cc(Cl)ccc2n1	11%	-1%	.	.	0%	3%	.	.

# Some of these compounds in order of formula weight, falling.
compound	RE007 growth inh	StopGo reporter	Cruzain inh Det	Cruzain inh noDet	SARS PLpro yeast	NS1 function inh	LASV entry inh	Marburg entry inh
COc1ccc(NC(=S)N(CCCN2CCC(C)CC2)Cc2cccs2)cc1Cl	2%	113%[activator]	.	.	1%	.	?	?
CCC(C)NC(=O)Cn1c(=O)n(-c2ccc(OC)c(OC)c2)c(=O)c2ccccc21 (stereo not given)	.	-3%	-0.9%	9%	.	.	0%[46.1 µM]	2%[46.1 µM]
CNC(=O)CSc1nnc(-c2cnccn2)n1C	-3%	10%	.	.	0%	3%	.	.

# The list goes on:
compound	RE007 growth inh	StopGo reporter	Cruzain inh Det	Cruzain inh noDet	SARS PLpro yeast	NS1 function inh	LASV entry inh	Marburg entry inh
CCCc1c(OCCCOc2ccc(OCC(=O)O)cc2)ccc(C(C)=O)c1O	9%[18.4 µM]	-21%	-16%	?	0%	-38%	?	?
CCCCOc1ccc(C(C)NC(=O)CCS(=O)(=O)Cc2ccccc2Cl)cc1 (stereo not given)	-6%	5%	-0.6%	-2%	6%	10%	-4%	-25%
O=C(c1ccc(Br)o1)N1CCN(CCOc2ccccc2)CC1	-7%	-4%	.	.	-1%	7%	-11%[46.1 µM]	-3%[46.1 µM]
Cc1cc(C)c(NC(=O)c2c(C)nn(-c3ccc(F)cc3)c2-n2cccc2)c(C)c1	.	0%	-5.5%	3%	.	.	-1%[46.1 µM]	.
CCCCn1c(SCC(=O)NCc2ccco2)nc2ccc(N3CCOCC3)cc2c1=O	0%	1%	1.1%	12%	-2%	-31%	-19%	-28%
COc1cccc(C(=O)NCC2CCCN2S(=O)(=O)c2cccs2)c1 (stereo not given)	-15%	35%[activator]	.	.	4%	.	-16%[46.1 µM]	3%
O=CN1CCN(C(C(=O)NC2CCCCC2)c2cc3c(cc2[N+](=O)[O-])OCO3)CC1 (stereo not given)	3%	1%	.	.	2%	.	.	26%[46.1 µM]
Cc1ccccc1N1C(S)=C(C#N)C(=O)NC1c1cccs1 (stereo not given)	5%	-9%	-2.5%	-15%	-2%	2%	-1%	-18%
O=C(Nc1ccc2ccccc2c1)C(c1ccccc1)C1CCCC1 (stereo not given)	21%	-26%	-5.9%	-23%	-59%	-45%	2.6µM*	?
COc1ccc(/C=C/C(=O)c2ccc3c4c(cccc24)CC3)cc1	21%	7%	-10%	?	-3%	14%	?	-29%
Cc1cccc(-n2c(O)cnc2Nc2nc(C)cc(C)n2)c1	4%	-16%	.	.	0%	4%	-16%	1%[46.1 µM]
O=C(O)C1CCN(S(=O)(=O)c2cccc3nsnc23)CC1	1%	4%	.	.	-3%	-6%	.	.
COCCOC(=O)c1c(C)n(C)c2ccc(OC(=O)C3CC3)cc12	-11%	31%[activator]	-2.8%	?	-2%	-169%	-1%	?
Cc1noc(-c2ccc(N3CCC(C)CC3)c([N+](=O)[O-])c2)n1	.	27%	-3.6%	17%	.	.	20%[46.1 µM]	?
COc1ccc(NC(=O)c2cc(Br)ccc2Cl)c(OC)c1	-27%	8%	-5.0%	8%	0%	7%	-3%	15%
O=C(CCN1C(=O)C2C3CCC(C3)C2C1=O)OCC(=O)c1ccc(Br)cc1 (stereo not given)	-8%	2%	.	.	1%	-94%	.	.
Cc1cc(Br)ccc1NCc1ccccn1	-9%	.	-1.3%	-2%	-7%	-7%	0%	-2%
O=C(NCc1cccnc1)C(=O)NCC1CCCO1 (stereo not given)	-6%	-1%	.	.	0%	5%	10%	-9%[46.1 µM]
CCCC(=O)Nc1nnc2n1CCS2	.	15%	-2.2%	-11%	.	.	-26%[46.1 µM]	.
Cc1cc(C)c2c(=O)c(C#N)coc2c1	0%	13%	.	.	2%	-66%	.	.
COc1ccc(NC(=O)CN(C2CCCCC2)S(C)(=O)=O)cc1OC	0%	-7%	2.2%	8%	-1%	-8%	-1%	7%
CCC1=NN(C(=O)C(=O)Nc2ccc(Br)cc2)C(O)(C(F)(F)F)C1 (stereo not given)	15%	12%	.	.	?	.	?	?
COc1ccccc1CC(=O)N1CCC(n2nccc2NC(=O)C2CCOC2)CC1 (stereo not given)	-10%	5%	.	.	23%	6%	?	-26%
Cc1ccc(-c2nc(CN(C)Cc3cccc4cnccc34)c(C)o2)s1	-3%	?	.	.	-2%	-3%	.	.
N#Cc1c(-c2ccncc2)cc(-c2ccc(F)cc2)nc1N	0%	-6%	.	.	0%	0%	?	?
Cc1cccc(C2N3CC4(C(C)C)CN2CC(C(C)C)(C3)C4=O)c1 (stereo not given)	.	0%	0.7%	-3%	.	.	?	.
O=C1c2ccccc2NC(c2cccs2)N1O (stereo not given)	-20%	20%	.	.	0%	.	?	?
COc1ccc(NS(=O)(=O)c2cccc(C(=O)NCC3CCCO3)c2)cc1 (stereo not given)	-5%	-5%	.	.	18%	.	-12%	?
O=C(CSc1nnc(-c2ccncc2)o1)N1CCCCCC1	-5%	38%[activator]	.	.	0%	-2%	25%	26%[46.1 µM]
N/C(=N\OC(=O)Cc1cccs1)c1ccc(Br)cc1	-4%	25%	-0.2%	8%	-34%	-6%	14%	?
COc1ccc(S(=O)(=O)Nc2c(NC3CCCCC3)c3ccccc3oc2=O)cc1OC	-8%	-11%	.	.	-1%	3%	.	.
COc1ccc(C2C(C(=O)c3ccc(C)o3)=C(O)C(=O)N2Cc2cccnc2)cc1OC (stereo not given)	2%	-2%	.	.	-4%	-7%	5%	7%[46.1 µM]
CCCn1c(N)c(Sc2ccc(Cl)cc2)c(=O)n(CCC)c1=O	14%	-23%	-3.9%	-4%	-1%	-3%	-7%	-8%
O=C(NCc1cccnc1)C1CC(c2ccccc2Cl)=NO1 (stereo not given)	7%	24%	.	.	1%	7%	-3%	-3%
CCOc1ccc(NC(=O)CCCc2cc(-c3ccc(OCC)cc3)on2)cc1	7%	20%	5.0%	-21%	1%	-3%	?	-21%[46.1 µM]
CCOc1ccc(-c2nc(-c3ccc(OC)cc3)no2)cc1OCC	-12%	-1%	-9.1%	?	-1%	-13%	5%	7%
CCC(=O)N1c2ccc(S(=O)(=O)CCC(=O)NCc3cccs3)cc2CC1C (stereo not given)	-1%	-13%	1.4%	7%	2%	1%	2%	?
CCCNC(=O)Nc1nnc(C2CC2)s1	2%	3%	.	.	0%	-1%	.	.
Cc1ccc(NC(=O)CN2C(=O)NC(C)(c3ccc(Cl)cc3)C2=O)c(Br)c1 (stereo not given)	18%	24%	.	.	-3%	-13%	-31%[46.1 µM]	?
CCO[C@@H]1OC(C(=O)Nc2ccccc2)=C[C@H](c2ccc(C(F)(F)F)cc2)[C@H]1CCCO	6%	-27%	.	.	-4%	-3%	.	.
COc1ccccc1OCC(=O)NC1CC(C)(C)NC(C)(C)C1	15%	-1%	.	.	-2%	1%	.	27%[46.1 µM]
CN(C)C(=O)CCc1nc(-c2ccc(C(C)(C)C)cc2)no1	-9%	0%	1.4%	?	-2%	-21%	?	?
Cc1ccc(C(=O)CN(C(=O)c2ccc(Cl)c(Cl)c2)N2C(=O)C3CCCCC3C2=O)cc1C (stereo not given)	-6%	1%	1.4%	-28%	-8%	8%	5%	?
CC(C)(C)c1ccc(C(=O)Nc2ccc(NC(=O)C(=O)O)cc2)o1	12%	-4%	.	.	-1%	2%	.	.
CN(C(=O)COC(=O)C12CC3CC(CC(Cl)(C3)C1)C2)c1ccccc1	15%	-17%	.	.	-22%	.	?	?
Cc1ccc(Cl)cc1-n1ncc2c(NCCCc3ccccc3)ncnc21	.	?	-0.1%	24%	.	.	?	.
